Source: PubChem BioAssay (ICCB-Longwood Screening Facility, Harvard Medical School)
GIV Gai3 FP: inhibitors of GIV GBA-motif binding to rat Galpha-i3. P08753. Galpha-i3/FITC-GIV peptide fluorescence polarization, 90 min; stronger effect = lower value; scaled: aluminum fluoride 0%, vehicle 100%. percent of control (FP), % (concentration not given with the values). 0.42% of 210,000 active. AID 1224905;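 active = replicate mean at 85% of control or lower, very high polarization wells dropped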;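 note: wells of about 15 µL received 100 nL stock; the first replicate is given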
Target sequence (P08753 whole entry, looked up): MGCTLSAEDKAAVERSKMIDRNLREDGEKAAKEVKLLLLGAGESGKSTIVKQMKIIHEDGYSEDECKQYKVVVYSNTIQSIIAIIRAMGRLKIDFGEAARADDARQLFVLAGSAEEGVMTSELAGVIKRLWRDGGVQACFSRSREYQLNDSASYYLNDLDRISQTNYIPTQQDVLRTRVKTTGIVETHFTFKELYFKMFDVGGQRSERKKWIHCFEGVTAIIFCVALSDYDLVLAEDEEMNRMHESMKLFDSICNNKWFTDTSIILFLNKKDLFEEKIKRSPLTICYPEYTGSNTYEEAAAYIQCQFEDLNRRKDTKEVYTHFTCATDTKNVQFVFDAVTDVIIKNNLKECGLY
Active calls of the source: *. An excerpt; the hit share may differ from the screen's.

GIV Gai3 FP,SMILES
112,Cc1ccc(Nc2coc3ccc4c(C)cc(=O)oc4c23)cc1
111,CCOc1cccc2cc(C(=O)Nc3cc(OC)ccc3OC)c(=Nc3ccc(C(=O)O)cc3)oc12
108,O=C(CSc1nnc2ccc(-c3ccncc3)nn12)N1CCCC1
102,COCCOC(=O)C1=C(C)NC2=C(C(=O)CC(c3cccs3)C2)C1c1coc2ccccc2c1=O (centres undefined)
109,COc1cc(C2C3=C(CC(C)(C)CC3=O)OC3=C2C(=O)CC(C)(C)C3)ccc1OCC(=O)OC(C)C
106,COc1cc(NS(=O)(=O)c2cc(-c3nc(C)cs3)n(CC(=O)N3CCCC3)c2)cc(OC)c1
107,CCOc1ccccc1NC(=O)N1CCCC(C)(C(=O)NCc2ccccc2C)C1 (centres undefined)
116,CC(C)(C)C(=O)[C@H]1[C@H](c2ccc(Cl)c(Cl)c2)C(C#N)(C#N)[C@@H]2c3ccccc3C=CN21
113,CCOc1ccc(-n2cc(-c3ccccc3)c3c(NCc4ccc5c(c4)OCO5)ncnc32)cc1
108,O=C(C1CCN(c2cncnc2N2CCCC2)CC1)N1CCCCC1
102,CCOc1c(NC2CCCCC2)c(=O)c1=O
107,CC1(C)CC(=O)C2=C(C1)c1c(ccc3ccccc13)NC2c1cc([N+](=O)[O-])c(Cl)cc1Cl (centres undefined)
102,CCc1ccc(C2=NN(c3ccccc3)C3(SC(C(C)=O)=NN3c3ccccc3)c3ccccc32)cc1 (centres undefined)
98,Cc1cc2c(cc1C)N=C(c1ccccc1)CC(SCC(=O)Nc1ccc3c(c1)OCCO3)=N2
100,COc1cc(OC)cc(-c2noc(-c3nn(-c4ccc(C)cc4)ccc3=O)n2)c1
115,O=S1(=O)c2ccccc2S(=O)(=O)N1c1cccc(Cl)c1
110,COC(=O)c1nnn(-c2nonc2N)c1CN1CCOCC1
106,COc1ccccc1C(O)(C(=O)NNc1cccc(C)c1)c1ccccc1OC
114,CC(C)CN(Cc1ccccc1)Cc1cc(=O)n2nc(C(C)C)sc2n1
109,CCOC(=O)C1=C(c2ccccc2)S/C(=C2/C(=S)C(C)(C)N(C)c3ccc(C)cc32)S1
101,Cc1ccc(NS(=O)(=O)c2cc(-c3cc(C(F)(F)F)on3)sc2C)cc1
109,COc1ccc(-c2cn3c4c(=O)n(C)c(=O)n(C)c4nc3n2-c2cccc3c2OCCO3)cc1
107,CCOC(=O)c1ccc(NC(=O)c2ccc(=O)n(Cc3ccc(F)cc3)c2)cc1
103,CC(=O)C1=NN(c2ccc(Cl)cc2)C(c2ccc3c(c2)OCO3)N1c1ccc(N2CCOCC2)cc1 (centres undefined)
105,CCOc1nc(NCCC2=CCCCC2)nc(N2CCOCC2)n1
106,COc1ccccc1C(NC(=O)C(C)C)c1ccc2cccnc2c1O (centres undefined)
116,c1ccc(NC2=NC3(CCCCC3)Cc3ccccc32)cc1
101,Cc1nc(-c2cc(S(=O)(=O)N(Cc3ccccc3)C(C)C)c(C)s2)sc1C
104,CCOC(=O)c1ccc(NC(=O)NCc2nnc(C(=O)Nc3ccccc3)s2)cc1
104,Cc1noc(C)c1C1CCCN1Cc1cn[nH]c1-c1ccc(F)cc1 (centres undefined)
105,O=S(=O)(NCCc1nc(-c2ccc(F)cc2)n[nH]1)c1ccc(Br)cc1
101,Cc1nc(N2CCN(C)CC2)c2c(C)c(C(=O)Nc3ccc(F)cc3)sc2n1
117,Cc1c(N=Cc2ccc(O)c(O)c2)c(=O)n(-c2ccccc2)n1C
114,CCC(C)(C)C1CCc2oc3c(cc(NS(=O)(=O)c4cccc([N+](=O)[O-])c4)c4ccccc43)c2C1 (centres undefined)
104,CC(C)c1ccc(-c2ccc(=O)n(CCc3nc(-c4ccc5c(c4)OCO5)no3)n2)cc1
107,CC1CC(C)CN(S(=O)(=O)c2ccc(Sc3ccc(F)cc3)c(C(=O)N3CCC4(CC3)OCCO4)c2)C1 (centres undefined)
100,O=S(=O)(c1cc(-c2cc(C(F)(F)F)on2)cs1)N1CCC(Cc2ccccc2)CC1
116,O=C(CSc1nc2ccc(NC(=O)c3ccccc3C(=O)O)cc2s1)Nc1ccc(F)c([N+](=O)[O-])c1
109,CCN(CC)S(=O)(=O)c1ccc2nc(NCCC3=CCCCC3)cnc2c1
101,CCOC(=O)c1ccccc1NC(=O)CSc1nccn1-c1ccccc1C
102,c1ccc(Nc2nc(N3CCCC3)nc3c2cnn3-c2ccccc2)cc1
112,COc1cccc(C2Oc3ccc(Cl)cc3C3CC(c4cccs4)=NN32)c1OC (centres undefined)
101,O=C1C2C(c3ccccc3)OC3(C(=O)c4ccccc4C3=O)C2C(=O)N1c1ccc(F)c([N+](=O)[O-])c1 (centres undefined)
103,CC1=NS(=O)(=O)c2cccnc2N1c1ccc(Cl)c(F)c1
100,O=C(NC1CCCCC1)c1ccc(-c2cc(NC3CCCCC3)ncn2)cc1
105,Cc1nnc(-c2c(S(=O)(=O)NC3CCCCC3)c(C)n(C)c2C)o1
107,CCCCCCCCCCCCCCCCN1C(=O)C(=O)/C(=C(/O)c2ccc(Cl)cc2)C1c1ccc(I)cc1 (centres undefined)
104,CS(=O)(=O)c1nc2ccc(NS(=O)(=O)c3ccc4c(c3)CCC4)cc2s1
106,O=C(NCc1ccccn1)c1snc2c(=O)n(Cc3ccccc3)cnc12
108,N#CCSc1nc2c(sc(=S)n2Cc2ccco2)c(=O)n1-c1ccc(F)cc1
111,Cc1cc(NC(=O)CSc2nc3c(sc(=S)n3Cc3ccco3)c(=O)n2-c2ccccc2)no1
106,O=C(Nc1cccc2c1CCCC2)c1nc2ccccc2nc1N1CCCC1
110,Cc1ccccc1-c1ncccc1C(=O)N1CCC(C(=O)NCc2cccc(Br)c2)CC1
109,C=CCN1CCN(c2nn3c(NC4CCCC4)c(-c4cccc(F)c4)nc3s2)CC1
102,O=C(Nc1ccc2c(c1)OCCO2)c1cccc(-n2cnnc2)n1
99,CC(C)NC(=O)CCn1c(=O)c2ccccc2n2c(=O)n(C)nc12
112,CCN(CC)CCCn1c(SC(C(=O)NCc2ccccc2)C(=O)NCc2ccccc2)nc2ccccc2c1=O
104,CSc1ccccc1NC(=O)c1nn2c(c1Br)NC(c1ccc(Br)cc1)CC2C(F)(F)F (centres undefined)
106,Cc1nc(-c2csc(S(=O)(=O)N3CCCC(C(=O)N4CCOCC4)C3)c2)no1 (centres undefined)
104,CCn1c(C)c(-c2nc(C3CC3)no2)c(S(=O)(=O)N2CCCCC2)c1C

Additional compounds follow.
GIV Gai3 FP,SMILES
112,O=C(CSc1nc2ccccc2c(=O)n1NC(=O)c1ccccc1)c1ccc(F)cc1
100,O=C(NCc1ccccn1)c1ccc(CN2C(=O)C3CCCN3C(=O)c3ccccc32)cc1 (centres undefined)
108,COc1nc(N(C)C)nc(N(C#N)CCOc2ccccc2)n1
112,Cc1ccc(NC(=O)c2cc(S(=O)(=O)N3CCc4ccccc4C3)ccc2F)cc1C
105,CC(=O)c1ccc(NC(=O)CSC2=C(C#N)C(c3ccc(C)o3)C3=C(CCCC3=O)N2)cc1 (centres undefined)
105,CCc1nnc(-c2coc(S(=O)(=O)N3CCN(C)CC3)c2)o1
109,C=CCN1C(=O)C2C3c4ccccc4C(c4ccccc43)C2C1=O (centres undefined)
104,O=C(c1ccco1)N1CCC(Nc2ncnc3c2CCC3)C1 (centres undefined)
101,CCOCCCNC(=O)c1c[nH]c2ccc(S(=O)(=O)N(C)c3ccc(Br)cc3)cc2c1=O
110,Clc1ccc(-n2ncc3c(N4CCN(c5ccccc5)CC4)ncnc32)cc1
100,CCCNC(=O)CN1c2ccccc2NC2=C(C(=O)CC(C)(C)C2)C1c1ccco1 (centres undefined)
103,CCOC(=O)C1=NN(c2ccc(Cl)cc2)C2C(=O)N(c3ccccc3Cl)C(=O)C12 (centres undefined)
100,CC(C)n1c(=S)[nH]c2ccc(F)cc2c1=O
109,CC1CN(Cc2c(O)ccc3c(=O)c(Oc4ccc5ccccc5c4)c(C(F)(F)F)oc23)CC(C)O1 (centres undefined)
105,N#Cc1c(NC(=O)c2cc3cc(Br)ccc3oc2=O)sc2c1CCCC2

Three entries out of the list above, ordered by the number in GIV Gai3 FP, largest number first:
GIV Gai3 FP,SMILES
116,c1ccc(NC2=NC3(CCCCC3)Cc3ccccc32)cc1
110,Cc1ccccc1-c1ncccc1C(=O)N1CCC(C(=O)NCc2cccc(Br)c2)CC1
108,O=C(CSc1nnc2ccc(-c3ccncc3)nn12)N1CCCC1

Continuation:
GIV Gai3 FP,SMILES
114,O=C(CCCOc1ccc(Cl)cc1Cl)Nc1ncn[nH]1
107,Cc1ccc(C(C)NC(=O)c2ccc(-c3cc(N4CCCC4)ncn3)cc2)cc1 (centres undefined)
102,CC(NC(=O)C1CCN(c2nc3ccsc3c(=O)n2-c2ccc(F)cc2)CC1)c1cccnc1 (centres undefined)
107,O=C(O)c1cccc(-n2c(=S)[nH]c3ccc(F)cc3c2=O)c1
100,O=c1ccn(-c2ccc(Cl)cc2)nc1-c1nc(-c2cccc(F)c2)no1
104,CCCc1[nH]n(-c2ccc(F)cc2)c(=O)c1C=NCCN1CCNCC1
100,CCC1=NS(=O)(=O)c2cccnc2N1c1ccc(F)c(F)c1
101,CCOc1ccc(NC(=O)c2cn(C)c3c(c(C)nn3-c3ccc(F)cc3)c2=O)cc1
108,Cc1cc(=O)n(CC(=O)Nc2ccccc2)c(-n2nc(C)cc2C)n1
110,O=C(C1CCN(c2ncnc3c2oc2ccccc23)CC1)N1CCN(c2ccc(Cl)cc2)CC1
103,CCN(Cc1ccccc1)C(=O)C1CCN(S(=O)(=O)c2ccc3c(c2)sc(=O)n3C)CC1
103,O=C(Nc1ccc(S(=O)(=O)N2CCOCC2)s1)N1CCCN(C(=O)c2ccc(F)cc2)CC1
104,COc1ccc(C2CC(C(F)(F)F)n3nc(C(=O)Nc4cccc(Cl)c4)cc3N2)cc1 (centres undefined)
99,COC(=O)c1sc2ccc(NC(=O)Nc3ccc(Br)cc3)cc2c1OC
104,O=C(Nc1ccc(N2CCC(c3ccccc3)C2)c(C(=O)O)c1)c1ccccc1F (centres undefined)
99,COC(=O)c1c[nH]n2c(=O)cc(CSc3nnc4c5ccccc5nc(-c5ccc(C)cc5)n34)nc12
105,CCc1onc(C)c1C1CCCN1Cc1cccc(Br)c1 (centres undefined)
98,Cc1nc2scc(C)n2c(=O)c1NC(=O)c1ccc(F)cc1
113,COc1ccc(Cl)cc1NC(=O)c1cc2n(n1)C(C(F)(F)F)CC(c1ccc(OC)c(OC)c1)N2 (centres undefined)
106,C=CCn1c2ccccc2c2nnc(SC(CC)C(=O)Nc3nc(C)c(C(=O)OCC)s3)nc21 (centres undefined)
112,O=C1/C(=C/c2ccc(Cl)cc2)C=C(c2ccccc2)N1c1ccc(Nc2ccccc2)cc1
106,CC(C)CC(=O)CN1C(=O)C2(OCCO2)c2ccccc21
105,CC1=C(n2nnc3ccccc32)C(c2ccccc2)C(C#N)=C(N)O1 (centres undefined)
107,O=c1n(Cc2ccc(Cl)cc2)nc2c(S(=O)(=O)N3CCCCC3)cccn12
100,Cc1nn(-c2ccc(F)cc2)c2sc(C(=O)Nc3ccc4c(c3)OCCO4)cc12
104,CCOC(=O)c1c(S(=O)(=O)N2CCCC(C(=O)NCc3ccccn3)C2)c(C)n(CC)c1C (centres undefined)
120,COC(=O)c1nnn(-c2nonc2N)c1CN1CCCCC1
101,Cc1nc(N2CCOCC2)nc(N2CCCCC2)c1[N+](=O)[O-]
100,Cc1cn2c(S(=O)(=O)N3CCCCC3)c(C(C)C)nc2s1
103,CCOC(=O)c1ccc(-n2c(=S)sc3c2nc(SCC(=O)N2CCCC2)n2c4ccccc4nc32)cc1
104,COc1ccc(-c2nnc(-c3cc(S(N)(=O)=O)ccc3Cl)o2)cc1
111,CC(=O)C1=NN(c2cccc(Cl)c2)C2(S1)c1ccccc1C(c1cc(C)ccc1C)=NN2c1ccccc1 (centres undefined)
109,CC(=O)N1CCC(C(=O)NCc2ccccc2)(N(C(=O)c2ccc(C)cc2)c2ccc(Cl)cc2)CC1
101,COc1ccc(NC(=O)N2CCC[C@@H]2C(=O)NCc2csc(-c3ccccc3)n2)c(OC)c1
96,O=C(Nc1ccccc1Cl)C1CCN(c2ncnc3onc(-c4ccc(F)cc4)c23)CC1
100,Cc1ccc(CNC(=O)C(C)Oc2ccc(-c3cnc4ccccc4n3)cc2)cc1 (centres undefined)
101,O=C(NCc1ccccc1)/C(=C/c1cn(-c2ccccc2)nc1-c1ccc(F)cc1)NC(=O)c1ccc(Cl)cc1Cl
108,COc1ccc(-n2ncc3c(Nc4ccc(OC)c(Cl)c4)ncnc32)cc1
108,CC1(C)OC(=O)N(CCC(=O)O)C1(C)O (centres undefined)
100,COC1CCN(C(=O)NC(C)(C)C)CC1

Entries above with an aryl thioether with sulfur outside any ring, in the order listed:
GIV Gai3 FP,SMILES
108,O=C(CSc1nnc2ccc(-c3ccncc3)nn12)N1CCCC1
107,CC1CC(C)CN(S(=O)(=O)c2ccc(Sc3ccc(F)cc3)c(C(=O)N3CCC4(CC3)OCCO4)c2)C1 (centres undefined)
116,O=C(CSc1nc2ccc(NC(=O)c3ccccc3C(=O)O)cc2s1)Nc1ccc(F)c([N+](=O)[O-])c1
101,CCOC(=O)c1ccccc1NC(=O)CSc1nccn1-c1ccccc1C
108,N#CCSc1nc2c(sc(=S)n2Cc2ccco2)c(=O)n1-c1ccc(F)cc1
111,Cc1cc(NC(=O)CSc2nc3c(sc(=S)n3Cc3ccco3)c(=O)n2-c2ccccc2)no1
112,CCN(CC)CCCn1c(SC(C(=O)NCc2ccccc2)C(=O)NCc2ccccc2)nc2ccccc2c1=O
104,CSc1ccccc1NC(=O)c1nn2c(c1Br)NC(c1ccc(Br)cc1)CC2C(F)(F)F (centres undefined)
112,O=C(CSc1nc2ccccc2c(=O)n1NC(=O)c1ccccc1)c1ccc(F)cc1
99,COC(=O)c1c[nH]n2c(=O)cc(CSc3nnc4c5ccccc5nc(-c5ccc(C)cc5)n34)nc12
106,C=CCn1c2ccccc2c2nnc(SC(CC)C(=O)Nc3nc(C)c(C(=O)OCC)s3)nc21 (centres undefined)
103,CCOC(=O)c1ccc(-n2c(=S)sc3c2nc(SCC(=O)N2CCCC2)n2c4ccccc4nc32)cc1
